# Sfp inh: blocks B. subtilis Sfp PPTase activity. Biochemical Sfp PPTase activity, qHTS. Potency, µM, inactives show max response, negative = inhibition, actives largely listed as inhibitors. hit rate 3.5% among 310,000. AID 1490. Q9F4F7; active = well fitted inhibition curve with a large enough effect; inconclusive = small, poorly fitted or top-dose-only effect, or another doubt; inactive = no such curve, though single readings can be large or run the other way;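 note: the enzyme is Sfp with the accession as filed and its product quenches rhodamine fluorescence; potency is the fitted concentration of half-maximal effect; 0% = enzyme reaction without inhibitor and -100% = no enzyme wells; top concentration of the series not given in the record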
#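 Step 1, compound plus 15 nM Sfp-PPTase, 15 min, room temperature. Step 2, add rhodamine-CoA (5 uM) and BHQ-2-YbbR (12.5 uM). Step 3, read 525/598 nm fluorescence at 0 and 30 min.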
# ClpP mod: qHTS Assay for Activators of ClpP; ATP-dependent Clp protease proteolytic subunit (Bacillus subtilis (strain 168)), P80244; purified B. subtilis ClpP, FRET peptide cleavage, 20 min; Potency, µM (titrated, usually from 57.5 µM), for the others: at the highest dose activity change, negative = active; hit rate 1.9% among 340,000; active = well fitted falling curve with a large enough effect; inconclusive = small, poorly fitted or top-dose-only effect; inactive = no such curve, though single readings can be large or run the other way; note: potency is the fitted concentration of half-maximal effect; the source files actives as falling curves though it sought activators and does not explain the sign; nearly all actives have a fitted effect of over 65% in size; many hits overshoot -100%
# Target sequence (P80244 whole entry, looked up): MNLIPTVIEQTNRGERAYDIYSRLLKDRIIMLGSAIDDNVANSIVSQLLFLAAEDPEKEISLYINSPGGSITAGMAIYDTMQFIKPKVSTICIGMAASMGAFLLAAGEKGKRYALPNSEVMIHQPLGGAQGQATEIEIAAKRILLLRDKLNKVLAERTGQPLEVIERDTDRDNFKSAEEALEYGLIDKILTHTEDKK
#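 FRET quenching reversal measured ClpP activation: 10 microg/mL B. subtilis ClpP at pH 8 with the FRET-FV decapeptide, read at 430 nm after 320 nm excitation. The 20-min minus 0-min signal was scaled between DMSO/no-enzyme wells and ADEP (5.8 microM final).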
# PINK1 expr mod: PINK1 expression modulation; PINK1 immunofluorescence, high-content cytometry, 24 h; Potency, µM (titrated, usually from 76.6 µM), for the others: top-dose activation (PINK1 increase), actives largely listed as activators; hit rate 0.2% among 410,000; AID 624263; active = well fitted activation curve with a large enough effect; inconclusive = small, poorly fitted or top-dose-only effect; inactive = flat fitted curve, though single readings scatter; cell line not stated here;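 note: potency is the fitted concentration of half-maximal effect; % of control where 0% means no effect; nearly all actives have a fitted effect of over 65% in size; a mitochondrial uncoupler was the plate control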
#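 Decision-based qHTS: stable cells, 24 h exposure to five compound concentrations, CCCP as control. Fixed cells stained for PINK1 plus nuclear, mitochondrial and cell markers, cytometer read.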
# gsp ag: gsp mutant agonism; gsp mutant cells, cAMP HTRF, 30 min; control for the full effect not named in the record; Potency, µM (doses to about 76.9 µM), for inactives: top-dose activation (cAMP increase), actives largely listed as activators; hit rate 0.13% among 340,000; active = well fitted activation curve with a large enough effect; inconclusive = small, poorly fitted or top-dose-only effect, or another doubt; inactive = no such curve, though single readings can be large or run the other way; cell line not stated here;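 note: phosphodiesterase inhibitor Ro 20-1724 added with compounds to block cAMP breakdown; potency is the fitted concentration of half-maximal effect; nearly all actives have a fitted effect of over 60% in size; about a fifth of the inactives were tested at one dose only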
#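 Cells stably selected in G418 were plated at 2000/well, grown 16-24 hr, then given compounds in DMSO with the PDE inhibitor […] (300 uM solution added) for 30 min at 37C; cAMP was read by HTRF.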
# D2 ag: activates the human D2 dopamine receptor; hit rate 0.084% among 360,000; activation, % (test concentration not listed); DiscoveRx PathHunter D2 beta-arrestin, luminescence, 90 min; 100% = 57 uM dopamine signal; P14416; in the data active = activation above about 40%; inconclusive = about 15% to 40%; inactive = below about 15%; note: compound concentration not given in the record; the text of the record calls up to 30% inactive
# Target sequence (P14416 whole entry, looked up): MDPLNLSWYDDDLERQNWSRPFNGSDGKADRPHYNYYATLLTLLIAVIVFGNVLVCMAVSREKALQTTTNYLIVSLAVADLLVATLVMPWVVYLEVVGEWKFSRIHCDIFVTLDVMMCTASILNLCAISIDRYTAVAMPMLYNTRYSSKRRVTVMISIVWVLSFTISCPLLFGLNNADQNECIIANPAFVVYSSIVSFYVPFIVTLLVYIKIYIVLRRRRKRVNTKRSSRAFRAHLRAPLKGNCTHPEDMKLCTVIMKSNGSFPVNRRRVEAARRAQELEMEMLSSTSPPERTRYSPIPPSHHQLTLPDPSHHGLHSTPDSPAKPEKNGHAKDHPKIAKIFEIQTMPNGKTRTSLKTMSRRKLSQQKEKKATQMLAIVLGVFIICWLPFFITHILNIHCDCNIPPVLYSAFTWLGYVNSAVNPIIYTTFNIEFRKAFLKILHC
#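 Agonist mode: compounds alone added to overnight-plated D2 PathHunter cells for 90 min at 37 C, with 57 uM final dopamine (EC100) defining full response. Beta-arrestin recruitment detected by chemiluminescent reagent, read after 1 h at ambient temperature.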
# gsp antag: antagonists of gsp mutant (McCune-Albright syndrome); gsp-mutant cells, cAMP HTRF, 30 min; control for the full effect not named in the record; Potency, µM (series often up to 76.9 µM), without a hit: top-dose activity change, negative = inhibition, most hits filed as inhibitors; hit rate 0.4% among 340,000; AID 624288; active = falling curve of any shape with a large fitted effect; inconclusive = falling curve, mostly with a smaller effect; inactive = flat or rising curve; cell line not stated here;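 note: intracellular cAMP measured with PDE inhibitor Ro 20-1724 present during compound exposure; potency is the fitted concentration of half-maximal effect; % is set by controls: 0 for no effect and ±100 for the full control effect; nearly all actives have a fitted effect of over 65% in size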
#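 Cells, 2000/well, grown 16–24 h in DMEM 10% FBS with 0.5 mg/ml G418, then compounds plus […] (300 uM addition stock), 30 min at 37C. cAMP read by HTRF (cAMP-d2 and anti-cAMP antibody-K in lysis buffer) after 30 min RT.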
# Menin MLL FP FL: displaces fluorescein MLL peptide from human menin. Fluorescence polarization, fluorescein-MLL peptide displacement from menin. FP activity change, % at 61.4 µM. 290,000 tested, under 10 active. AID 1766; inconclusive = falling polarisation curve, or a change in total fluorescence; inactive = total fluorescence flat and polarisation flat or rising; no compound was filed as active; the % refers to the polarisation; negative = inhibition;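 note: % of control where 0% means no effect; inhibitors lower the polarisation; unlabelled MLL peptide was the positive control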
# * = called active by the depositor; ? = inconclusive; . = no result given; & = joins results of further samples; [ ] = dose if it differs, or a comment.
Molecule,PINK1 expr mod,gsp antag,Sfp inh,D2 ag,Menin MLL FP FL,gsp ag,ClpP mod
O=C(CCS(=O)(=O)c1ccc(Br)cc1)Nc1ccc2c(c1)OCO2,1.8%[38.3 µM],-0.2%,-0.3%,-2.1,7.3,6.1%,-2.2%
Cc1noc(C)c1S(=O)(=O)Nc1ccc(C(=O)N2CCN(c3ccc(Cl)cc3)CC2)cc1,0.5%,?,12.7%,3.8,-3.2,-3.8%[15.4 µM],-0.2%
CCc1c(C(=O)N/N=C/c2ccc(C)o2)csc1C,1.0%,-9.2%,-2.7%,-3.1,-1.7,20.7%,0.7%
COc1ccc(CCNCC2C(Oc3ccc(Cl)cc3)C(=O)N2c2ccccc2C)cc1OC (stereo not drawn),6.6%,-15.6%,-26.6%,-0.9,-7.0,7.4%,.
CCOC(=O)CSc1nc2ccccc2c(=O)n1CC1COc2ccccc2O1 (stereo not drawn),.,?,-3.6%,-2.3,-1.9,13.7%,-2.4%
Cc1ccc(NC(=O)C2(C)CCN2C(=O)c2ccccc2CCc2ccccc2)cc1C (stereo not drawn),1.4%,.,.,-6.7,.,.,-7.0%
C=C1Cn2c(nnc2-c2ccc(Cl)cc2)S1,1.0%,-5.5%,-0.5%,1.2,4.1,24.4%,-4.4%
CCOC(=O)c1ccc(Cl)c(S(=O)(=O)N2CCCC2)c1,-0.7%,0.0%,-0.1%,2.7,-0.8,15.1%[15.4 µM],.
O=C(CSc1nc2ccsc2c(=O)n1CC1CCC(C(=O)O)CC1)c1ccc(F)cc1 (stereo not drawn),-0.3%,?,1.1%,-0.9,1.4,?,-0.1%
COC(=O)c1cc(N=Nc2sc(N)nc2C)cc(C(=O)OC)c1,12.3%,-22.9%,-3.4%,-2.1,-0.5,9.2%,0.7%
CCCc1ccc(S(=O)(=O)N2CCN(C(C)C(=O)NCc3ccccc3)CC2)cc1 (stereo not drawn),0.9%,-29.9%,.,-1.9,.,39.0%,-1.4%
CC1CCN(S(=O)(=O)c2cccc(C(=O)NCC3CCCO3)c2)CC1 (stereo not drawn),-0.1%,1.5%,4.8%,3.7,.,-26.3%,-2.9%
CS(=O)(=O)CCC(C(=O)n1nnc2ccccc21)N1C(=O)c2ccccc2C1=O (stereo not drawn),0.3%,5.6%,19.3%,-2.1,-1.8,28.5%,0.1%
CC(Oc1ccccc1)C(=O)NC1CCN(Cc2ccccc2)CC1 (stereo not drawn),0.7%[38.3 µM],-6.7%,6.5%,-2.5,0.6,-1.1%,-2.5%
Cc1cccc(CS(=O)(=O)Cc2ccc(C(=O)O)o2)c1,-0.7%,0.3%,4.6%,-2.7,3.0,-6.6%,-1.5%
CN1CC(=O)N(CC(=O)Nc2ccc(SC(F)F)cc2)C1=O,0.8%,5.6%,-8.4%,-1.1,-1.3,5.0%[15.4 µM],.
COc1ccc(C(=O)Nc2cc3c(cc2C(=O)O)OCCCO3)c(OC)c1,-2.9%,-12.3%,15.5%,1.7,-0.1,-17.3%,.
Cc1cccc(OCC(=O)NNC(=O)c2ccc3nc[nH]c3c2)c1,-1.2%,5.7%,.,-4.4,.,17.7%[15.4 µM],.
Cc1ccc2c(C(=O)CN3CCN(c4ccccc4)CC3)c(C)[nH]c2c1,17.2%,2.9%,10.7%,-1.5,3.4,3.0%,1.1%
NC(=O)c1nn(Cc2ccccc2)c(=O)c2ccccc12,0.1%,2.9%,2.4%,-2.7,-1.3,0.6%[15.4 µM],.
C=CCNC(=S)N/N=C/c1ccc(-c2cc(Cl)ccc2Cl)o1,12.1%,6.0%,-8.3%,-2.7,-0.4,-17.9%,-7.6%
CCCCNc1c(-c2ccc(SC3CCCCC3)c(OC)c2)nc2ccc(C)cn12,25.1µM*,-3.2%,.,6.8,.,.,4.4%&4.5%
Cn1cc(S(=O)(=O)Nc2ccc(F)c(Cl)c2)c(=O)n(C)c1=O,0.8%,-2.0%,18.6%,-6.0,-0.6,-13.5%,-0.7%
CCOC(=O)C1(Cc2ccccc2C)CCCN(Cc2ccc(NC(C)=O)cc2)C1 (stereo not drawn),2.0%,1.2%,7.0%,1.5,11.5,22.1%,.
CC(C)CC(=O)Nc1ccc(N2CCN(S(C)(=O)=O)CC2)cc1,3.3%,30.9%,15.5%,2.2,7.3,-3.8%,1.9%
Cc1ccc(C(=O)N/C(=C\c2cn(C)c3ccccc23)C(=O)NCCCN2CCOCC2)cc1,0.1%,-10.0%,1.5%,-3.2,.,15.7%,.
Cc1ccc(S(=O)(=O)N(C)c2ccccc2C(=O)Nc2ccc3c(c2)OCCO3)cc1,-1.6%,-11.7%,5.6%,-2.6,1.1,-26.9%,-0.7%
O=C(NC(=S)Nc1cccc(Cl)c1N1CCCC1)c1ccc(-c2cccc([N+](=O)[O-])c2)o1,3.7%[38.3 µM],-7.6%,13.9%,-3.1,-0.9,-10.8%,-4.9%
O=C(/C=C/c1ccco1)NCC1CCCO1 (stereo not drawn),0.7%,4.8%,-70.2%,1.2,?,0.5%,-1.1%
COc1ccc2[nH]c3c(c2c1)CCN1C(=O)N([C@@H](C)C(=O)NC2CCN(Cc4ccccc4)CC2)C(=O)[C@]31C,3.0%,-0.4%,9.9%,-1.5,6.6,.,-1.8%
O=C(NC1CCCc2ccccc21)C1CCN(S(=O)(=O)c2ccccc2)CC1 (stereo not drawn),1.0%,-12.6%,8.3%,-1.3,5.1,13.4%,1.3%
O=c1[nH]c2cc3c(cc2cc1C(c1nnnn1Cc1ccccc1)N1CCN2CCCC2C1)OCCO3 (stereo not drawn),-1.6%[38.3 µM],-2.9%,-23.3%,-2.1,16.5,-32.5%[inhibitor],25.1µM*
CCCCNC(=O)c1onc(CSc2ccc(F)cc2)c1C(=O)NCCCC,8.2%,-10.0%,4.9%,-1.1,-0.6,-7.1%,-2.8%
Nc1nc(-c2cccc(Br)c2)cs1,?,-7.2%,-18.6%,0.8,3.4,-0.7%,0.6%
CC(=O)c1cccc(OC(=O)C2=CC=CN3CCS(=O)(=O)N=C23)c1,3.3%,8.8%,.,2.7,.,12.4%,3.4%
c1cnc2ccc(C(c3nnnn3C3CCCCC3)N3CCN4CCCC4C3)cc2c1 (stereo not drawn),-0.3%,1.3%,11.5%,0.6,2.1,17.1%,-1.2%
Cc1nccc(-c2sc(-c3cccs3)nc2C)n1,2.5%,-0.2%,-23.8%,-5.6,1.9,?,4.0%
O=c1cc(CN2CCN(Cc3ccccc3)CC2)c2ccc(O)c(O)c2o1,-1.0%,-5.6%,79.4µM*,0.6,-13.8,-15.4%[15.4 µM],1.7%
O=C(NCc1ccc(F)cc1)c1cc(C2CCCCN2C(=O)c2ccccc2)on1 (stereo not drawn),-0.9%,.,.,2.1,.,.,1.0%
CS(=O)(=O)c1nc(S(=O)(=O)c2ccc(Cl)cc2)c(N2CCC(O)CC2)s1,-0.4%,-19.2%,13.4%,-2.4,.,12.4%,0.3%
Cc1cc(C)c(C2=CC(=O)C[C@H](c3ccc4c(c3)OCO4)C2)c(C)c1,0.9%,-12.0%,.,-2.7,.,-15.0%,0.3%
C=CCn1c(COc2ccc(Cl)cc2)nnc1SCC(=O)Nc1ccc(S(N)(=O)=O)cc1,-1.7%,-3.7%,15.4%,1.1,-2.9,-0.5%[15.4 µM],-26.2%
O=C(O)CCCC(=O)N1CCN(c2nc(-c3ccccc3)c3ccccc3n2)CC1,-0.4%,-19.2%,12.8%,1.1,1.9,?,-14.6%
O=C(Cc1ccc(-c2ccccc2)cc1)OCC(=O)N1CCCC1=O,3.0%,-0.1%,6.1%,3.6,4.1,?,.
O=C(Nc1c(Cl)cccc1Cl)Oc1cccc2cccnc12,0.7%,.,.,13.0,.,.,-4.3%
CC(C)n1cc(/C=C2/NC(=O)NC2=O)c2ccccc21,-3.2%,-2.1%,?,-0.6,4.6,-10.0%,.
O=C(Nc1cccc(S(=O)(=O)N2CCOCC2)c1)C1CCCC1,1.9%,-7.6%,.,3.2,.,6.2%,-2.3%
Cc1cc(C(=O)NC2CCCc3c2cnn3-c2ccc(C(C)(C)C)cc2)nn1C (stereo not drawn),-0.3%,?,-2.0%,-0.1,.,-51.0%[inhibitor],-1.2%
Cc1cc(Cl)ccc1OCCCC(=O)OCC(=O)Nc1cccc(S(N)(=O)=O)c1,4.6%,-2.6%,.,3.0,.,-36.5%[inhibitor],18.0%
CCC[C@@H]1C[C@@H](C(=O)N[C@H]([C@@H](C)O)[C@H]2O[C@H](SC)[C@H](O)[C@@H](O)C2O)N(C)C1 (stereo partly drawn),0.5%,5.6%,19.0%,-1.6,-4.2,.,0.9%
CCCN1Cc2cccc(C(=O)NCc3ccccc3OC)c2C1=O,?,-22.9%,7.1%,-1.5,2.1,20.4%,-6.1%
Cc1ccc(C(=O)NC2CCS(=O)(=O)C2)cc1S(=O)(=O)N1CCCCCC1 (stereo not drawn),-2.4%,-4.1%,14.4%,-4.7,-1.0,-14.7%[15.4 µM],.
CN(C)c1ccc(/C=[N+](\[O-])C2N(c3ccccc3)C(=S)SC2(C)C)cc1 (stereo not drawn),-0.1%,-15.3%,8.2%,-4.1,0.4,-0.3%,1.3%
COc1ccc(NC(=O)CCN2CCOCC2)c(OC)c1,1.9%,3.8%,7.2%,-1.3,5.5,-1.9%[15.4 µM],1.5%
CCN(CC)S(=O)(=O)c1ccc(C(=O)Nc2ccc3c(c2)OCO3)cc1,-0.3%,.,3.3%,-1.5,-3.7,1.4%[15.4 µM],.
COc1ccc(-c2noc(CNC(=O)c3ccc4c(c3)OCO4)n2)cc1,1.0%,-7.9%,0.9%,1.9,0.9,?,.

# Compound activity: PubChem BioAssay, National Center for Advancing Translational Sciences (NCATS)
